# From PubChem BioAssay
# CSC inhib: blocks cancer stem cells | inhibition, % at 7.5 µM | 300,000 tested, 1.1% active | cancer stem cell-like cells viability, luminescence;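 active = mean at 75% or more and at least half the replicates too; inconclusive = mean and replicates disagree; tested in HMLE shEcad cells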;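 note: 0% = median of negative and 100% = median of positive control wells; the first replicate is given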
# Rce1 inh: blocks yeast Ras-converting enzyme; Q03530; yeast membranes, quenched prenylated peptide cleavage fluorescence; calls only; 290,000 tested, 0.27% active;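 active = fall in fluorescence gain of 50% or more versus controls, with final raw signal at or below 3038400; inconclusive = same 50% fall but final raw signal above 3038400; inactive = fall in fluorescence gain under 50%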;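 note: plate controls were neutral control wells for no effect and wells lacking membranes for full effect; tested at 10 µM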
# UUG fidelity: yeast start codon fidelity modulation; S. cerevisiae UUG-firefly luciferase reporter, luminescence/redox ratio; activity score, % at 18.7 µM; 350,000 tested, 0.13% active;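 active = replicate mean at a twofold rise or more, about +100% in these data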;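 note: firefly luciferase made from a UUG start codon reports start codon fidelity; reporter light over untreated wells divided by growth signal over untreated wells; some hits fall short of that in this replicate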
# PABP FP inh: PABP-poly(A) binding inhibition. PABP-poly(A) RNA binding, fluorescence polarization. inhibition, % at 35 µM. 290,000 tested, 1% active;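 active = 50% or more with normal probe brightness, or confirmed in later tests; inconclusive = above 50% with abnormal brightness, or retests that disagree; inactive = below 50% or failed in later tests; about a fifth of its hits are not listed in these tables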;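 note: calls also rest on retests at 20 µM and on dose response follow-up; controls were probe without protein and protein plus probe with vehicle; some compounds called inactive have numbers as strong as hits; many hits fall short of the cut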
# Target sequence (P11940 whole entry, looked up): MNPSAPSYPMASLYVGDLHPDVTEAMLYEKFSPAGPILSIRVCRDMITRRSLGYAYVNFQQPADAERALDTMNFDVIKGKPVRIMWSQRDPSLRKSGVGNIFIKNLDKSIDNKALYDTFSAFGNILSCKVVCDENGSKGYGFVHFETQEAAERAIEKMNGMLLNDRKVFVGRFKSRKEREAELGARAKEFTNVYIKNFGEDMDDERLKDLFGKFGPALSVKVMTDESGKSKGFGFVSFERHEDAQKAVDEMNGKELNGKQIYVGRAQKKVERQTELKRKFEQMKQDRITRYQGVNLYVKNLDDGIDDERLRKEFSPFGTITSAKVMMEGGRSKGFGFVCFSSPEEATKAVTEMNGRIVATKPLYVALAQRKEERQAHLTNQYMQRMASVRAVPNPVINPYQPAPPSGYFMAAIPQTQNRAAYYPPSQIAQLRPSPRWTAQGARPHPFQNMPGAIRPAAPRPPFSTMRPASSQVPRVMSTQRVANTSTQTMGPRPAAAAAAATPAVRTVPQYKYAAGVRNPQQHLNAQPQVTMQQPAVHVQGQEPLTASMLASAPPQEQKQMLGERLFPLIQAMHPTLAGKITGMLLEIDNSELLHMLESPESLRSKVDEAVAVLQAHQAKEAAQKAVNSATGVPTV
# MT1-MMP act inh: inhibitors of human MT1-MMP activation; P50281; HT1080 RFP-PRO-GFP cells, GFP/RFP ratio fluorescence, overnight; percent of plate control window, DMSO zero; GFP/RFP ratio change, % at 20 µM; 360,000 tested, 0.061% active;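 active = GFP/RFP ratio change of at least 30% with cell ATP level not reduced by more than half and red fluorescence within 50% of control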; note: strong numbers were not always called active
#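 Assay system: HT1080 RFP-PRO-GFP cells | Dosing: 20 µM single dose, 1% DMSO | Incubation: Cells overnight before dosing, compound overnight, 37 °C, 5% CO2 | Evaluation: GFP/RFP fluorescence ratio | Control set: DMSO-only wells and HT1080 RFP-L50D-GFP cell wells as references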
# eIF4H inh: inhibitors of RNA binding by human eIF4H; eIF4H fluorescence polarization binding assay; Q15056; 290,000 tested, 0.94% active; inhibition, % at 35 µM; AID 2012;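 active = 50% or more with normal probe brightness, or confirmed in later tests; inconclusive = above 50% with abnormal brightness, or retests that disagree; inactive = below 50% or failed in later tests; about a fifth of its hits are not listed in these tables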;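 note: calls also rest on retests at 20 µM and on dose response follow-up; 0% = protein and probe with vehicle and 100% = probe without protein; strong numbers were not always called active; many hits fall short of the cut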
# Env fusion inh: HIV envelope-mediated fusion inhibition | HeLa-JRFL Env/CEM21 cell fusion, luciferase | inhibition, % at 12.3 µM | AID 651610 | 360,000 tested, 1.1% active;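 active = mean replicate inhibition score of at least 50 and every replicate individually at or above 50; inconclusive = only one of the two criteria met; inactive = mean below 50 and not all replicates reaching 50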;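 note: 0% = plate neutral controls and 100% = maraviroc near 300 nM; one replicate is shown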
# MT1-MMP act inh RFP: also measured in MT1-MMP act inh; calls as there; RFP signal change, %; measured here: RFP expression control read;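 0 = vehicle wells; hits needed this value within 50% of zero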
# Numbers without * were called inactive; i = inactive; ? = inconclusive; / = no result given.
no.	smiles	CSC inhib	Rce1 inh	UUG fidelity	PABP FP inh
1	COc1ccc(N2CCOCC2)c(NC(=O)c2ccco2)c1	/	i	-1	-4
2	Cc1cc(C(=O)COC(=O)c2cccc(NS(C)(=O)=O)c2)c(C)n1CC1CCCO1 (stereo unspecified)	-26	/	-61	/
3	Cc1noc(C)c1C(=O)OCC(=O)/C=C1\N(C)c2ccccc2C1(C)C	-12	i	-14	4
4	N[C@@H](Cc1cnc[nH]1)C(=O)Nc1ccc2ccccc2c1	/	/	-28	/
5	CCOc1ccc(NS(=O)(=O)c2ccc3[nH]c(=O)oc3c2)cc1	-3	i	-19	9
6	Cc1cccc(OCC(=O)O/N=C(\N)Cc2ccc(Cl)cc2)c1	12	i	-3	-8
7	CC(C)[C@H](Nc1ccc(C(F)(F)F)cc1[N+](=O)[O-])C(=O)O	-3	i	14	6
8	CC(=O)c1ccc(NC(=O)CCc2c(C)nc3ncnn3c2C)cc1	/	i	-6	0
9	CCOC(=O)c1c(C)nn(-c2ccc(NC(=O)CSCC(=O)O)cc2)c1C	-7	i	/	10
10	O=C(CN1CCC(NC(=O)Nc2ccccc2)CC1)Nc1ccc([N+](=O)[O-])cc1	2	i	-11	-3

no.	MT1-MMP act inh	MT1-MMP act inh RFP	eIF4H inh	Env fusion inh
1	-1	1	-6	18
2	-1	-4	/	/
3	2	-8	-5	-33
4	2	5	/	8
5	3	-5	-1	-4
6	0	4	7	/
7	-1	-1	-5	12
8	7	7	7	-20
9	0	3	2	25
10	8	-5	-3	25

# (list continues)
no.	smiles	CSC inhib	Rce1 inh	UUG fidelity	PABP FP inh
11	O=C(OC(C(=O)NCc1ccc2c(c1)OCO2)c1ccccc1F)c1ccco1 (stereo unspecified)	-8	i	10	-7
12	CCN1CCN(c2ccc(S(=O)(=O)N3CCOCC3)cc2NC(=O)COc2ccc(F)cc2Cl)CC1	4	i	10	6
13	Cn1nnc(NC(=O)c2cccs2)n1	-5	i	-1	-2
14	CCOC(=O)C1CCN(C(=O)COc2ccc(C(=O)c3ccccc3)cc2)CC1	-11	/	10	/
15	Cc1ccc(CNC(=O)CC(NC(=O)c2ccccc2)c2ccccc2)cc1 (stereo unspecified)	-10	/	-10	/
16	CC1CC(C)CN(C(=O)Cn2nnc(-c3ccc(Br)cc3)n2)C1 (stereo unspecified)	1	i	-19	-10
17	O=S(=O)(Nc1cccc(-n2cnnn2)c1)c1ccccc1C(F)(F)F	-9	i	10	2
18	COc1ccc2oc(C(=O)OCC(=O)N3CCN(C(C)=O)CC3)c(C)c2c1	-15	i	-4	/
19	CCOc1ccc(C(=O)NCC2CCN(CC3CCCCC3)CC2)cc1	/	i	-8	1
20	CCOc1ccc(/C=C(\C#N)C(=O)NCC2CCCO2)cc1OCC (stereo unspecified)	-19	i	-33	6

no.	MT1-MMP act inh	MT1-MMP act inh RFP	eIF4H inh	Env fusion inh
11	0	-7	4	-46
12	-4	2	-17	2
13	4	5	-2	3
14	5	1	/	/
15	0	-3	/	/
16	5	2	5	-3
17	2	2	-13	-3
18	2	1	/	3
19	9	7	-6	5
20	-3	1	11	/

# Further entries:
no.	smiles	CSC inhib	Rce1 inh	UUG fidelity	PABP FP inh
21	Cc1cccc(C)c1NC(=O)CN1CCNCC1	-25	i	-6	-5
22	Cc1ccc(NC(=O)c2cncc(Br)c2)nc1	3	i	-3	2
23	O=C(Nc1ccccc1)c1cccnc1Nc1ccccc1	/	/	-1	-5
24	COc1ccc(C(=O)NCCSCc2ccc(Cl)cc2)cc1OC	-13	i	-13	10
25	COc1ccccc1C(=O)NC(=O)COC(=O)c1ccc(Cl)cc1[N+](=O)[O-]	-25	i	-3	/
26	Cc1ccc(OCC(=O)NNC(=O)Nc2ccc(Cl)cc2)c(Br)c1	9	i	/	/
27	COc1ccc(NC(=O)C2CCC(CNc3c(N4CCOCC4)c(=O)c3=O)CC2)cc1Cl (stereo unspecified)	-7	i	-10	3
28	CCC(C)(C)c1nnc(NC(=O)c2cccc([N+](=O)[O-])c2)s1	-2	i	/	-12
29	Cn1nccc1C(=O)OCC(=O)Nc1cccc(Cl)c1	/	/	-11	/
30	CCCCn1c(N)c(N(CC(C)C)C(=O)Cn2c(=O)oc3ccccc32)c(=O)[nH]c1=O	-12	i	-4	/

no.	MT1-MMP act inh	MT1-MMP act inh RFP	eIF4H inh	Env fusion inh
21	11	3	-11	/
22	0	2	0	-16
23	/	/	2	/
24	-2	-3	1	22
25	1	4	/	8
26	13	-1	/	13
27	2	2	6	-22
28	14	-3	-11	/
29	3	2	/	-6
30	-2	-6	/	6

# Some of the entries so far, with one line to a screen.
[4] N[C@@H](Cc1cnc[nH]1)C(=O)Nc1ccc2ccccc2c1
[5] CCOc1ccc(NS(=O)(=O)c2ccc3[nH]c(=O)oc3c2)cc1
[6] Cc1cccc(OCC(=O)O/N=C(\N)Cc2ccc(Cl)cc2)c1
[7] CC(C)[C@H](Nc1ccc(C(F)(F)F)cc1[N+](=O)[O-])C(=O)O
[8] CC(=O)c1ccc(NC(=O)CCc2c(C)nc3ncnn3c2C)cc1
[9] CCOC(=O)c1c(C)nn(-c2ccc(NC(=O)CSCC(=O)O)cc2)c1C
[10] O=C(CN1CCC(NC(=O)Nc2ccccc2)CC1)Nc1ccc([N+](=O)[O-])cc1
compound no. | 4 | 5 | 6 | 7 | 8 | 9 | 10
CSC inhib | / | -3 | 12 | -3 | / | -7 | 2
Rce1 inh | / | i | i | i | i | i | i
UUG fidelity | -28 | -19 | -3 | 14 | -6 | / | -11
PABP FP inh | / | 9 | -8 | 6 | 0 | 10 | -3
MT1-MMP act inh | 2 | 3 | 0 | -1 | 7 | 0 | 8
MT1-MMP act inh RFP | 5 | -5 | 4 | -1 | 7 | 3 | -5
eIF4H inh | / | -1 | 7 | -5 | 7 | 2 | -3
Env fusion inh | 8 | -4 | / | 12 | -20 | 25 | 25

# The listing continues:
no.	smiles	CSC inhib	Rce1 inh	UUG fidelity	PABP FP inh
31	Cc1cc(OCC(=O)OCC(=O)NCc2ccco2)ccc1Cl	-11	i	/	/
32	COC(=O)N/N=C/c1cc(N=Nc2ccccc2Cl)ccc1O	/	i	3	-18
33	Clc1c(-c2nnc3n2CCCCC3)sc2ccccc12	/	i	-19	2
34	Cc1c(Cl)cccc1NC(=O)NCc1ccc(F)cc1	-8	i	/	0
35	N#Cc1c(Cc2cccc3ccccc23)nn(CCO)c1N	/	i	-9	/
36	Cc1nc2c(sc(=S)n2Cc2ccco2)c(=O)n1CC(=O)Nc1ccccc1	-1	i	-13	-13
37	CC1(C)C=C(c2ccc(C=O)s2)CC(C)(C)N1	-5	i	-16	4
38	C=CCNC(=O)COc1c(C)ccc(C)c1C	-2	i	-7	35
39	CC(=C/c1ccccc1)/C=N/n1c(-c2ccncc2)n[nH]c1=S	-28	i	/	-13
40	COc1ccc(C(=O)N2CCc3ccc(NC(=O)c4ccccn4)cc3C2)cc1F	/	i	-3	0

no.	MT1-MMP act inh	MT1-MMP act inh RFP	eIF4H inh	Env fusion inh
31	2	3	/	/
32	9	-4	30	-48
33	3	1	-2	/
34	1	2	2	-10
35	/	/	/	15
36	1	-1	1	-1
37	0	-2	6	/
38	-1	2	3	-22
39	-21	-15	1	64*
40	-4	-16	5	8

# Remaining list, next part:
no.	smiles	CSC inhib	Rce1 inh	UUG fidelity	PABP FP inh
41	O=C(NC1CCCC1)C1CCC(CNS(=O)(=O)c2ccc(F)cc2)CC1 (stereo unspecified)	-2	i	-15	5
42	Cn1cc(CNC(=O)C2CCC(=O)N(Cc3cccc(C(F)(F)F)c3)C2)cn1 (stereo unspecified)	-4	i	-17	-3
43	COc1ccc(/C=c2\s/c(=C/C(=O)c3ccc(C)cc3)[nH]c2=O)c(OC)c1	49	i	-14	6
44	Cc1ccc(S(=O)(=O)n2nc(OC(=O)c3ccccc3C)cc2N)cc1	13	i	-17	-3
45	COc1ccc(-c2ccc(SCC(=O)c3cccs3)nn2)cc1OC	-1	i	/	-2
46	COc1ccc2[nH]c3c(=O)n(CCCC(=O)NC4CCCCC4C)c(=S)[nH]c3c2c1 (stereo unspecified)	-5	i	-1	22
47	CSc1ncc2[nH]c(C(O)c3ccccc3)nc2n1 (stereo unspecified)	/	/	-18	/
48	Cc1ccc(N2CN(Cc3ccco3)CNC2=S)c(C)c1	-14	i	/	10
49	Cc1cccc(/C=C/C(=O)c2ccc(N3CCOCC3)cc2)c1	-6	i	/	-7
50	O=C(N/N=C/c1cc(Br)c(Br)o1)c1cccnc1	-6	i	/	3

no.	MT1-MMP act inh	MT1-MMP act inh RFP	eIF4H inh	Env fusion inh
41	0	5	1	1
42	-1	0	-8	0
43	-82	2	?	11
44	-2	2	-6	9
45	5	-4	-9	3
46	-1	3	0	3
47	-2	-23	/	10
48	0	0	-1	/
49	/	/	-11	3
50	-11	6	?	/

# Going on with the list.
no.	smiles	CSC inhib	Rce1 inh	UUG fidelity	PABP FP inh
51	Cc1cc(C(=O)N/N=C/c2ccc[nH]2)n[nH]1	17	/	/	10
52	CCC(C)NC(=O)c1cnc2n(c1=O)CCS2 (stereo unspecified)	-4	/	-2	7
53	O=C(NNS(=O)(=O)c1ccccc1)C(O)(c1ccccc1)c1ccccc1	8	i	/	0
54	COCCCNC(=O)c1c(N)n(/N=C/c2ccccn2)c2nc3ccccc3nc12	/	i	-23	1
55	CCCCNC(=O)c1cc(-c2ccc(F)cc2)on1	27	i	-21	8
56	Cc1nc2ccc(S(=O)(=O)NCC(=O)N3CCc4ccccc4C3)cc2s1	-5	i	5	24
57	O=C(O)CSc1ncccc1C(=O)O	-8	i	/	1
58	NC(=O)c1nn(-c2ccccc2)nc1NC(=O)Cn1nnc(-c2ccccc2)n1	1	i	3	30
59	Cc1cc(C)cc(C(=O)Nc2cccnc2)c1	-14	i	-21	-13
60	CCOc1ccc(-n2c(SCC(=O)Nc3ccc(CC)cc3)nc3n[nH]c(C)c3c2=N)cc1	-11	i	/	3

no.	MT1-MMP act inh	MT1-MMP act inh RFP	eIF4H inh	Env fusion inh
51	-13	-17	20	29
52	0	7	2	-7
53	-7	-2	-4	/
54	-2	-2	-2	/
55	3	4	-2	i
56	5	0	-2	/
57	3	5	4	-6
58	-1	-2	-7	-13
59	3	2	7	-2
60	0	1	2	-4

# The list goes on:
no.	smiles	CSC inhib	Rce1 inh	UUG fidelity	PABP FP inh
61	CC(C)(C)NC(=O)COC(=O)c1cncc(Br)c1	-7	i	-20	3
62	CCCSCCCNC(=O)CN1C(=O)COc2ccc(S(=O)(=O)N3CCCC3)cc21	/	i	-8	3
63	O=C(O)CC(C(=O)Nc1ccc(F)cc1)C1CCCO1 (stereo unspecified)	-10	i	/	-4
64	COc1ccc(N(CC(=O)Nc2ccc(Cc3ccncc3)cc2)S(=O)(=O)c2ccccc2)cc1	/	i	-24	6
65	CC(C(=O)Nc1ccc(N2CCOCC2)cc1)N1C(=O)NC(C)(C)C1=O (stereo unspecified)	0	/	-14	/
66	COCCNC(=O)C1(C)CCCN(C(=O)c2cc(F)cc(F)c2)C1 (stereo unspecified)	/	/	-19	/
67	S=C(NCc1ccncc1)Nc1ccc(Cl)c(Cl)c1	12	i	-18	8
68	Cc1ccccc1N(CC(=O)NC1CCCC1)C(=O)C1(C)CC(=O)N=C2C=CC=CN21 (stereo unspecified)	-6	?	-16	-10

no.	MT1-MMP act inh	MT1-MMP act inh RFP	eIF4H inh	Env fusion inh
61	1	4	19	/
62	2	1	-4	8
63	-2	-6	-1	5
64	-6	-13	-16	8
65	2	5	/	0
66	2	3	/	-10
67	4	-4	2	32
68	5	3	8	?
